Source: PubChem BioAssay
NPYLR7 ag = activates Aedes aegypti NPYLR7 receptor. HEK293T NPYLR7/Galpha15, GCaMP6s calcium fluorescence. activation, % at 10 µM. 0.15% of 270,000 active. AID 1259423; in the data active = activation above about 40%;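 note: 0% = vehicle and 100% = reference agonist at the receptor; some compounds past the cut are filed as inactive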
NPYLR7 ag max-min = recorded beside NPYLR7 ag, whose call it bears; activation, %; measured here: Max-Min RFU normalised activation; some inactives read as strong as hits;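 span of the calcium signal over five minutes; 0% = vehicle and 100% = native peptide agonist; compound fluorescence can raise it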
An asterisk follows results filed as active; & = joins results of further samples.

The first two records (preview)
SMILES	NPYLR7 ag	NPYLR7 ag max-min
NC(=O)C1CCC(CNC(=O)CCCOc2ccccc2Cl)CC1 (stereo unspecified)	1	1
O=C(NN=C1CCCCCC1)NC1CCCCC1	8	5

All compounds of this part, previewed entries included:
SMILES	NPYLR7 ag	NPYLR7 ag max-min
NC(=O)C1CCC(CNC(=O)CCCOc2ccccc2Cl)CC1 (stereo unspecified)	1	1
O=C(NN=C1CCCCCC1)NC1CCCCC1	8	5
Cc1nn2c(N3CCN(c4ccccn4)CC3)cc(C(C)C)nc2c1-c1ccccc1	1	0
CC1(NC(=O)C(c2ccccc2)c2ccccc2)CCS(=O)(=O)C1 (stereo unspecified)	5	3
CCc1ccccc1N1CCN(Cc2ccccc2C)C(C)C1=O (stereo unspecified)	-9	-2
CCOC(C)c1ccc(-c2cc(CO)ccn2)cc1 (stereo unspecified)	4	3
O=C(CC1(c2cccc(F)c2)CC(=O)N(Cc2cccnc2)C1=O)N1CCN(C2CCCC2)C(=O)C1 (stereo unspecified)	25	13
O=C(c1cccs1)N1CCOc2ccc(CN3CCN(c4ccccc4)CC3)cc2C1	-1	-4
CCCCCc1ccc(C(=O)Nc2ccc(-n3nc(OC)nc3-c3ccc(Cl)c(Cl)c3)cc2)cc1	4	5
CCc1ccc(OC)c(S(=O)(=O)Nc2ccc(Cl)cc2)c1	7	1
Cc1ccc(CN2CCN(c3ncnc4ccccc34)CC2)o1	3	-2
CCOC(=O)c1c(C)n(-c2ccc(C)c(C)c2)c2ccc(OC(=O)c3ccccc3)cc12	-5	-13
O=C(CCc1cc(=O)[nH]o1)N1CCC2(CCCO2)CC1	8	6
CC(C)(C)c1ccc(C(=O)NCC(=O)Nc2cc(F)ccc2O)cc1	-3	-6
N#Cc1ccc(NC(=O)c2cnc(Cl)c(Cl)c2)cc1	1	-6
CCOC(=O)c1cc(C(C)=O)c(C)[nH]c1=O	3	0
O=C(Nc1ccc(F)c(F)c1)N1CCC2(CC1)SCCN2C(=O)c1ccc(C(F)(F)F)cc1	4	6
Cc1cccc(C(C(=O)NCCC(=O)Nc2nccs2)N(C)C)c1 (stereo unspecified)	6	3
Cc1cccnc1CN1CCN(CC2CCOC2)CC1 (stereo unspecified)	3	6
O=C1CC(N2CCN(c3ccc(F)cc3)CC2)C(=O)N1c1ccc(I)cc1 (stereo unspecified)	6	2
O=C(CSc1nc2ccccc2n1Cc1ccccc1)N/N=C\c1c(F)cccc1Cl	0	2
CN(C)c1ccc(NC(=O)c2cccs2)cc1CN(CC1CCCO1)C(=O)CC(C)(C)C (stereo unspecified)	-15	-12
Cc1cnc(C)c(N2CCN(Cc3nc(Cc4cccc(C(F)(F)F)c4)no3)CC2)n1	18	6
Cc1nc2c(C)cccn2c1CN1CC[C@@]2(C1)[C@@H](O)CN(C)S2(=O)=O	3	5
O=C(COc1ccc(F)cc1Br)NCCOc1ccc(Cl)cc1	-2	-2

No new results follow: 2 of the compounds above.
SMILES	NPYLR7 ag	NPYLR7 ag max-min
CCc1ccccc1N1CCN(Cc2ccccc2C)C(C)C1=O (stereo unspecified)	-9	-2
CCOC(C)c1ccc(-c2cc(CO)ccn2)cc1 (stereo unspecified)	4	3

Other results follow.
SMILES	NPYLR7 ag	NPYLR7 ag max-min
CCOC(=O)C1(CCCc2ccccc2)CCN(C(=O)c2csc(C(C)=O)c2)CC1	11	4
O=C(CSc1ccc2ccccc2c1)OCn1nnc2ccccc2c1=O	-5	-6
CCCCS(=O)(=O)N1CCCN(C(=O)CN2CCc3sccc3C2c2cccc(F)c2)CC1 (stereo unspecified)	6	-3
COc1ccc(Cl)cc1N1CCN(C(=O)COc2ccc(Cl)cc2)C(C)C1=O (stereo unspecified)	-4	7
O=C(Cn1nc2c(c1NC(=O)c1cc3ccccc3o1)CSC2)NCCc1ccccc1	2	12
CC(C)(C)CC(=O)NCC(=O)N1CCCC(N2CCCC2)C1 (stereo unspecified)	6	3
Cc1cccc(-n2cc(-c3ccnc(NC(C)Cc4ccncc4)n3)cn2)c1 (stereo unspecified)	-3	-7
O=C(c1ccccc1F)N(Cc1ccco1)Cc1c(-c2ccccc2)noc1N1CCCC1	-3	1
COc1ccccc1NS(=O)(=O)c1ccc2oc(SCCOc3ccccc3)nc2c1	12	3
CCOC(=O)CC1CCCCN1C(=O)c1cc(Cn2ccnc2C(C)C)[nH]n1 (stereo unspecified)	22	11
O=C(C1CCOCC1)N1C[C@H](O)[C@@H](N2CCN(c3ccccn3)CC2)C1	8	4
CCOC(=O)C1(C(=O)OCC)C(c2ccccc2)CC(=O)CC1c1ccccc1 (stereo unspecified)	-1	-1
COC(=O)c1ccc(C(=O)N(CCn2cccn2)c2nc3c(C)cc(C)cc3s2)cc1	-14	-22
C=CCN(C(=O)c1ccc(Br)cc1)C(C)C(=O)c1c(C)c(C(=O)OC)n(C)c1C (stereo unspecified)	-7	-7
O=C1/C(=C\c2ccc(O)c(Cl)c2)CS(=O)(=O)C/C1=C/c1ccc(O)c(Cl)c1	18	19
CC1CCCCN1S(=O)(=O)c1ccc(C(=O)N(C)CC(=O)Nc2ccc(Cl)c(Cl)c2)cc1 (stereo unspecified)	3	1
CCOC(=O)C1=C(C)NC2=C(C(=O)CCC2)C1c1ccc([N+](=O)[O-])cc1 (stereo unspecified)	1	-3
Cc1c(C(=O)N2CCCC(CO)(Cc3ccc(F)cc3F)C2)[nH]c2ccc(Cl)cc12 (stereo unspecified)	5	3
O=C(CN(Cc1ccccc1)C(=O)C1C[C@H]1c1ccccc1)Nc1cc(-c2ccccc2)nn1-c1ccc(F)cc1 (stereo partly specified)	-4	3
COc1cccc(C2=Nn3c(nnc3-c3cccnc3)SC2)c1	1	3
Cc1nc2sccn2c(=O)c1NC(=O)CCCc1ccccc1	8	-2
CCOC(=O)C1CC(=O)NN1c1ncccc1Cl (stereo unspecified)	6&0	3&-4
COc1ccc2nc(NC(=O)C(c3ccccc3)c3ccccc3)sc2c1	-7	-12
Cn1cc(N2CCCC(Nc3ccc(-c4cncnc4)cc3)C2=O)cn1 (stereo unspecified)	-1	-2
CC(C)(C)c1ccc(C(=O)NOCc2ccccc2)cc1	0	-1

Part of the list above, with values under each structure.
Order of values: NPYLR7 ag, NPYLR7 ag max-min
- O=C1/C(=C\c2ccc(O)c(Cl)c2)CS(=O)(=O)C/C1=C/c1ccc(O)c(Cl)c1
    18, 19
- CC1CCCCN1S(=O)(=O)c1ccc(C(=O)N(C)CC(=O)Nc2ccc(Cl)c(Cl)c2)cc1 (stereo unspecified)
    3, 1
- CCOC(=O)C1=C(C)NC2=C(C(=O)CCC2)C1c1ccc([N+](=O)[O-])cc1 (stereo unspecified)
    1, -3
- Cc1c(C(=O)N2CCCC(CO)(Cc3ccc(F)cc3F)C2)[nH]c2ccc(Cl)cc12 (stereo unspecified)
    5, 3
- O=C(CN(Cc1ccccc1)C(=O)C1C[C@H]1c1ccccc1)Nc1cc(-c2ccccc2)nn1-c1ccc(F)cc1 (stereo partly specified)
    -4, 3
- COc1cccc(C2=Nn3c(nnc3-c3cccnc3)SC2)c1
    1, 3
- Cc1nc2sccn2c(=O)c1NC(=O)CCCc1ccccc1
    8, -2

Arranged by formula weight (ascending): part of the list above
SMILES	NPYLR7 ag	NPYLR7 ag max-min
Cn1cc(N2CCCC(Nc3ccc(-c4cncnc4)cc3)C2=O)cn1 (stereo unspecified)	-1	-2
COc1ccccc1NS(=O)(=O)c1ccc2oc(SCCOc3ccccc3)nc2c1	12	3
CCCCS(=O)(=O)N1CCCN(C(=O)CN2CCc3sccc3C2c2cccc(F)c2)CC1 (stereo unspecified)	6	-3

More structures follow:
SMILES	NPYLR7 ag	NPYLR7 ag max-min
COc1ccccc1CN(C(=O)CCn1nc(C)c(C)c1C)C1CC1	-5	-6
Cc1ccc(C2CCCN2C(=O)C(=O)Nc2cccnc2)cc1C (stereo unspecified)	5	5
NC(=O)c1cnn2c1NC(c1ccco1)CC2C(F)(F)F (stereo unspecified)	-4	-14
Cn1c(CSC2=NCCN2)nc2ccccc21	1	1
CCCN1CCC(NC(CC(C)C)c2cccnc2)CC1 (stereo unspecified)	8	3
CSc1ccc(Cn2c(C)c(C(=O)N(C)Cc3ccc(F)cc3)sc2=O)cc1	-8	-1
O=C1NCC(=O)N2CCN(C3CCN(CCc4ccccc4)CC3)CC12 (stereo unspecified)	14	12
CCCn1cc(C(=O)N2CCCC(C)C2)c2nn(-c3ccccc3)c(=O)c-2c1 (stereo unspecified)	9	10
CCN(CC(=O)NC(C)C)C(=O)c1cc2c(C)nn(CC(C)C)c2s1	5	4
CCc1nnc2c3c4c(sc3ncn12)CCCC4	3	1
CCc1nc(C(C)(C)O)n(-c2ccccc2)n1	1	-1
CCN(CC)Cc1nc(C2(NCc3ccccc3C)CCCC2)no1	2	1
CN(C)c1ccc(NC(=O)C2CCCC2)cc1CN(CC1CCCO1)C(=O)c1ccc(F)cc1 (stereo unspecified)	-2	1
C=CCOCC(O)CN(Cc1ccc(F)cc1)Cc1cccc(OC)c1 (stereo unspecified)	22	28
CC(C)=CC(=O)N1CCN(c2c(Cc3ccccc3)c(C)nc3ncnn23)CC1	29	22
O=C(Cc1cccs1)Nc1nnc(SCCCOc2ccccc2)s1	13	21
CCc1cc(N2CCN(CC3=Cc4cccc(OC)c4OC3)CC2)ncn1	-1	-3
COC(=O)c1ccc(-c2c(Nc3ccccc3)oc3c2c(=O)n(C)c(=O)n3C)cc1	-12	-13
O=C(OCc1cc(-c2ccc(Cl)cc2)on1)C1CCCC1	-1	-3
COc1ccc(NC(=O)N2CCN(c3nc(-c4cccs4)nc4cc(Cl)ccc34)CC2)cc1	6	13
CCC(CC)C(=O)Nc1c2c(nn1-c1cc(C)cc(C)c1)CSC2	0	4
Cc1ccc(N2C(=O)CSC2c2cccc(NC(=O)CCc3ccccc3)c2)cc1F (stereo unspecified)	-6	6
Fc1ccc(C2=Nc3nc(C(F)(F)F)nn3C(c3ccc(Cl)cc3)C2)cc1 (stereo unspecified)	-1	-6
CN(Cc1ccc(-n2cccn2)cc1)Cc1cnn(C)c1	13	10
CCCC(C)(NCC(=O)N(C)Cc1ccccc1)C(=O)OC (stereo unspecified)	-3	-4
More structures follow.
SMILES	NPYLR7 ag	NPYLR7 ag max-min
CCOC(=O)c1ccc(OC2CC3CCC(C2)N3C(=O)c2ccc(CSc3cccc(Cl)c3)cc2)cc1 (stereo unspecified)	11	6
Cc1ccc(C2=NOC(CNCc3cccc(C(F)(F)F)c3)C2)cc1 (stereo unspecified)	-2	-6
CC(C)C1C2CCCCC2=NN1C(=O)CC(C(=O)O)N1CCCCC1 (stereo unspecified)	1	15
c1ccc(-c2cn(CC3CCN(Cc4ccoc4)CC3)nn2)nc1	1	-3
Cc1cccc(-n2nc3c(c2NC(=O)c2ccc(S(=O)(=O)N(C)C)cc2)CSC3)c1C	0	-1
Cc1[nH]c2ccc(CNC(=O)CCc3cnccn3)cc2c1C	15	7
CC1CN(S(=O)(=O)c2ccc(F)cc2)CCN1S(=O)(=O)c1ccc(F)cc1 (stereo unspecified)	1	2
CC(C)CN(CCC(=O)NCCN1CCOCC1)c1nc(-c2cccc(Br)c2)nc2ccccc12	-15	-4
CCc1ccc(CN2CCC(CCC(=O)NCc3ccc(F)cc3)CC2)o1	3	4
CSc1nnc2c(n1)-c1cccc3cccc-2c13	12	2
O=C(C1COc2ccccc2O1)N(Cc1nc2ccccc2c(=O)[nH]1)CC1CCCO1 (stereo unspecified)	4	2
C=CCNC(=O)C1CCCN1c1ncnc2c1cnn2-c1ccccc1 (stereo unspecified)	-5	-4
CNS(=O)(=O)c1ccc(CN2CCN(Cc3ncccc3C)CC2)cc1	5	2
COCCCN(CC(=O)N(CCc1c[nH]c2ccccc12)Cc1ccccc1)C(=O)C1C[C@H]1c1ccccc1 (stereo partly specified)	-9	-7
CN(C)c1ncc(-c2nccn2-c2cccc3c2CCC3)cn1	-6	-8
CC(C)c1cc(=O)n(CC(=O)N(Cc2ccccc2)c2ccccc2)cn1	9	2
Cc1cccc(CO[C@]2(C(=O)NN3CCOCC3)CC(OCc3ccccc3)[C@H](O)[C@H](O)C2)c1 (stereo partly specified)	-4	-4
FC(F)c1nc2ccccc2n1-c1nc(N2CCOCC2)nc(N2CCOCC2)n1	-4	-10
CCn1c(=O)c(C(=O)N2CCN(C)CC2)nn(-c2ccccc2F)c1=O	4	16
CS(=O)(=O)N1CCC(Oc2cccc(C(=O)NC3Cc4ccccc4C3)c2)CC1	7	5
CC(C)(Oc1ccc2c(c1)CCC2)C(=O)N1CCN2C(=O)CNC(=O)C2C1 (stereo unspecified)	1	-6
COc1ccccc1C1=NN(C(=O)CN2CCCCC2C)C(c2ccc(C)cc2)C1 (stereo unspecified)	-3	7
CCCC(CCC)C(=O)N1CCN(C(=O)c2cn(C(C)C)cc3c(=O)n(-c4ccccc4)nc2-3)CC1	12	11
Cc1ccccc1C(NC(=O)Cc1nonc1C)c1ccncc1 (stereo unspecified)	0	0
Cc1nccn1-c1ccnc(C(=O)NCC2(c3ccccc3)CCC2)c1	5	1
Other structures
SMILES	NPYLR7 ag	NPYLR7 ag max-min
Cc1nc(C)c(Cc2ccc(F)cc2)c(N2CCN(C(=O)c3cccc(Cl)c3)CC2)n1	1	2
Cc1ccccc1-c1nc2scc(CCNS(=O)(=O)c3ccc4ccccc4c3)n2n1	3	0
O=C(NC1CCCCC1)c1cn(C2CC2)cc(C(=O)N2CCOc3ccc(Cl)cc3C2)c1=O	19	8
CC(C)Nc1ccc(C(=O)NCCOc2ccccc2Cl)cn1	-21	-24
COc1nn(C)cc1C(=O)Nc1nc2c(OC)ccc(OC)c2s1	1	49
CSc1ccc(CN(CCO)C(=O)c2ccc3c(c2)OCO3)cc1	25	8
CCN(CC)c1ccc(/C=N\NC(=O)c2nonc2N)c(O)c1	35	28
CCOc1ccc(S(=O)(=O)c2cnc(SCC(=O)Nc3ccc(C)c(C)c3)[nH]c2=O)cc1	0	-5
Cc1ccc2c(N)cccc2n1	-2	3
Cc1cc2c(o1)CC(C)(C)CC2NCc1csc(-c2ccco2)n1 (stereo unspecified)	-6	-3
CN(CCc1cn[nH]c1)C(=O)CC(c1ccccc1)c1ccc(Cl)cc1 (stereo unspecified)	7	-5

These rows are one share of the data (hit frequency here may not be typical).
